High-throughput results as filed in PubChem BioAssay.
Polio RdRp inh = poliovirus RdRp elongation inhibitors, primary screen, biochemical, fluorescence polarization, total intensity; 0.66% of 150,000 active; poliovirus polymerase elongation; stronger effect = lower value; % elongation, % (compound at 16.7 µg/mL); in the data active = % elongation below about 90%; also: some results filed as inactive read as strong as hits
Target sequence (P03300 1749-2209 limits assumed): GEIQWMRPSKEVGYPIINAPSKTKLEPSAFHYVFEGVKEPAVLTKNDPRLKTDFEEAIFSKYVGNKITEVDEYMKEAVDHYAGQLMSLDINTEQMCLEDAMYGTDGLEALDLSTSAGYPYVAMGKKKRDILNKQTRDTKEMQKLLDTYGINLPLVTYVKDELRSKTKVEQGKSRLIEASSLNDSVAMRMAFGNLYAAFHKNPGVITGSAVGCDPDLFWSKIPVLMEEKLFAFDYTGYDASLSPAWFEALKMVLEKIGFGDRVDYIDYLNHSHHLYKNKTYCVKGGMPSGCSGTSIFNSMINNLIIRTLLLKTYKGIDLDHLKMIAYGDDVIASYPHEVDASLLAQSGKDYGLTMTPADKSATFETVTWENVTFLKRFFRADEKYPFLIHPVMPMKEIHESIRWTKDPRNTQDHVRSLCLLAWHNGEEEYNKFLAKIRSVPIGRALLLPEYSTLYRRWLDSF
Polio RdRp inh intensity = second read-out of Polio RdRp inh, no call of its own (marks repeat the call); % elongation; measured here: total intensity read-out; formula for this scale not given here;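 total fluorescence in place of polarization; lower means less elongation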
Numbers without * were called inactive. This is a subset; count on the stated rates, not on these rows.

SMILES	Polio RdRp inh	Polio RdRp inh intensity
O=C(C1CCC(CNS(=O)(=O)c2ccc(Br)s2)CC1)N1CCN(c2ccc(F)cc2)CC1 (centres undefined)	100	103
COc1cccc(N2CCN(C(=O)c3cc4c(=O)n(Cc5ccccc5)ccc4nc3C)CC2)c1	106	101
CCc1ccc(Nc2nc3c(S(=O)(=O)c4ccc(C)cc4)nnn3c3ccsc23)cc1	109	111
COc1ccc(CNC(=O)c2cc3cccc4c3n2CC(C)S4)c(OC)c1 (centres undefined)	107	103
CCCCN(CC)CCNC(=O)Cn1c(=O)c2cccn2c2cccnc21	105	110
CCOc1ccccc1NC(=O)CC1C(=O)NCCN1C(=O)c1ccc(F)cc1 (centres undefined)	107	112
NC(=O)CSc1nc2ccc(NC(=O)COc3ccccc3)cc2s1	103	105
Cc1ccn2c(Nc3ccccc3C)c(-c3ccccn3)nc2c1	113	113
Cc1cc(C)n2nc(SCC(=O)Nc3ccc(O)cc3)nc2n1	104	106
CCOC(=O)c1ccc(NC(=O)CSc2cn(CC(=O)N3CCCC3)c3ccccc23)cc1	111	107
Cc1ccc(/C=C(\C#N)c2nc3ccccc3c(=O)[nH]2)cc1	103	110
O=C(/C=C/c1cn(CC(O)CN2CCCCCC2)c2ccccc12)c1ccccc1 (centres undefined)	109	110
O=C(NCC1CCN(Cc2ccc(F)cc2)CC1)c1cc2ccc3cccnc3c2[nH]1	101	103
CC(=O)c1cc2c(cc1NC(=O)c1cnn(-c3ccc(C)cc3)c1-n1cccc1)OCO2	103	107
COc1ccc(N(Cc2cc3cc(OC)ccc3[nH]c2=O)C(=O)c2cccc(Cl)c2)cc1	119	110
CN(C)c1ccc(-n2c(CCC(=O)O)ccc2-c2ccccc2)cc1	104	105
Cc1ccc(CNC(=O)CSCc2nc(-c3cccc(C)c3)oc2C)cc1	107	110
CCOC(=O)c1c(NC(=O)c2cc(CC)on2)sc(C)c1C	90*	90*
Cc1cccc(N2CCN(c3nc4ccccc4c4nc(-c5cccnc5)nn34)CC2)c1C	104	109
O=C(Nc1ccc(OC(F)(F)F)cc1)C(Cc1ccccc1)NS(=O)(=O)c1cccc2nsnc12 (centres undefined)	109	107
CCN(CC)CCNC(=O)c1sc2nc(C)cc(C)c2c1-n1cccc1	100	107
COc1ccc(OC)c(C2NC(=O)NC(C)=C2C(=O)Nc2cc(C)cc(C)c2)c1 (centres undefined)	111	111
CCOC(=O)c1cc(C)n(CC2CCC(C(=O)Nc3cccc(C(C)=O)c3)CC2)c1C (centres undefined)	99	104
CCc1ccccc1NC(=O)Cn1nnc(C(=O)Nc2ccc(C)c(F)c2)c1N	114	116
Nc1ncc(S(=O)(=O)NCc2cccc(Cl)c2)cn1	111	111
COc1ccccc1Nc1nn2c(=O)c3ccc(C(=O)N4CCCCC4)cc3nc2s1	97	102
Cn1c(=O)c2c(SCC(=O)NCc3ccco3)nc(-c3ccccc3F)nc2n(C)c1=O	105	108
CCOc1ccc(NC(=O)Nc2nnc(N3CCCCC3C)s2)cc1 (centres undefined)	109	108
CC(C)CCNC(=O)Cn1cc(S(=O)(=O)Cc2ccc(F)cc2)c2ccccc21	93	104
CC(C)CCN(C(=O)Nc1ccc(Cl)c(Cl)c1)C1CCN(C(C)C)CC1	117	113

Structural class: the compounds so far containing an NH in an aromatic ring (three)
SMILES	Polio RdRp inh	Polio RdRp inh intensity
Cc1ccc(/C=C(\C#N)c2nc3ccccc3c(=O)[nH]2)cc1	103	110
O=C(NCC1CCN(Cc2ccc(F)cc2)CC1)c1cc2ccc3cccnc3c2[nH]1	101	103
COc1ccc(N(Cc2cc3cc(OC)ccc3[nH]c2=O)C(=O)c2cccc(Cl)c2)cc1	119	110

Whole records from above. Values in the order: Polio RdRp inh	Polio RdRp inh intensity
Cn1c(=O)c2c(SCC(=O)NCc3ccco3)nc(-c3ccccc3F)nc2n(C)c1=O reads 105	108
CC(=O)c1cc2c(cc1NC(=O)c1cnn(-c3ccc(C)cc3)c1-n1cccc1)OCO2 reads 103	107
O=C(NCC1CCN(Cc2ccc(F)cc2)CC1)c1cc2ccc3cccnc3c2[nH]1 reads 101	103
CN(C)c1ccc(-n2c(CCC(=O)O)ccc2-c2ccccc2)cc1 reads 104	105
CCCCN(CC)CCNC(=O)Cn1c(=O)c2cccn2c2cccnc21 reads 105	110

Next part
SMILES	Polio RdRp inh	Polio RdRp inh intensity
Cc1ccc(Cn2cc(CCC(=O)NC3CCC(C)CC3)c3ccccc32)cc1 (centres undefined)	110	108
COc1ccc(NC(=O)c2cnc3cc(C)ccn3c2=O)c(OC)c1	111	104
COCCCNC(=O)c1ccc(Cn2c(=O)c3ccccc3n(Cc3ccc(Cl)cc3)c2=O)cc1	103	106
COC(=O)c1c(SCC(=O)Nc2cccc(Cl)c2C)[nH]c2ccccc2c1=O	108	116
CCC(C)NC(=O)Cn1c(=O)n(CCCCCC(=O)NCc2ccccc2Cl)c(=O)c2sccc21 (centres undefined)	108	101
COC(=O)c1c(SC)nc2ccccc2c1OCc1ccccc1C	110	117
CCCCCCSc1nc(N)c2c3c(sc2n1)CCCC3C (centres undefined)	109	111
CC(=O)c1ccc(NC(=O)CCSc2nc(-c3ccco3)cc(C(F)(F)F)n2)cc1	104	107
N#Cc1cccc(NC(=O)CCNS(=O)(=O)c2ccc3c(c2)CCN3C(=O)C2CC2)c1	108	110
CCn1c(CNC(=O)c2ccc(OC)cc2)nnc1SCC(=O)Nc1ccc(OC)cc1	102	101
CCc1ccc(NC(=O)C(=O)NCC(c2cccnc2)N2CCOCC2)cc1 (centres undefined)	104	99
COc1ccccc1N1CCN(S(=O)(=O)c2cc(C(=O)Nc3ccc(Oc4ccccc4)cc3)ccc2F)CC1	107	104
CCOC(=O)CCc1c(C)nc2cc(-c3cc(OC)cc(OC)c3)[nH]n2c1=O	107	110
COc1ccc(C(c2c(O)cc(C)n(Cc3ccco3)c2=O)N2CCN(c3ccccc3)CC2)cc1 (centres undefined)	111	107
COC(=O)c1cc(NC(=O)[C@H](CCS(C)(=O)=O)N2Cc3ccccc3C2=O)cc(C(=O)OC)c1	100	108
O=C(NCc1ccc(Cl)cc1)c1ccc2c(c1)nnn2C1CCCC1	103	111
CCOc1ccc(NS(=O)(=O)c2ccc3c(c2)NC(=O)CCS3)cc1	99	101
CC1=C(C(=O)N2CCN(c3cc(C)ccc3C)CC2)C2(CCC(C)CC2)OC1=O (centres undefined)	104	108
COc1cc(CN(C(=O)c2cc3ccccc3oc2=O)C2CCS(=O)(=O)C2)cc(OC)c1OC (centres undefined)	105	107
CCn1cc2nc(SCc3cccc(C(F)(F)F)c3)n(Cc3ccc(OC)cc3)c(=O)c2n1	100	103
CN(C)CCNC(=O)Cn1c(=O)c2cccn2c2ccc(F)cc21	111	104
COc1ccc(CCNC(=O)c2cn(C)c3ccc(S(=O)(=O)N(C)C4CCCCC4)cc3c2=O)cc1OC	104	105
Cc1cc(NC(=O)CSc2nc(-c3ccccc3C)nc3c2c(=O)n(C)c(=O)n3C)no1	110	116
Cc1c2cnn(CC(=O)NCc3ccc(Cl)cc3)c(=O)c2c(C)n1Cc1ccc(F)cc1	112	112
CN(C)c1cccc(C(=O)Nc2nc3ccc(S(=O)(=O)NC(C)(C)C)cc3s2)c1	110	117
COc1ccc(-c2ccc3c(N)c(C(=O)Nc4cccc(C)c4)sc3n2)cc1	113	118
Cc1ccccc1Nc1cc(C(=O)NCCc2ccc(Cl)cc2)c2ccccc2n1	109	110
COc1ccc(NC(=O)C2=C(C)Nc3nc(SCc4ccccc4C)nn3C2c2cc(OC)c(O)c(OC)c2)cc1 (centres undefined)	109	111
CCOC(=O)c1cccc(NC(=O)C2CCCN(S(=O)(=O)c3ccc4c(c3)oc(=O)n4C)C2)c1 (centres undefined)	110	112
Cc1ccc2c(=O)cc(C(=O)Nc3c(C)cccc3C)oc2c1	108	108

Four entries picked at random from the list so far, as already listed:
SMILES	Polio RdRp inh	Polio RdRp inh intensity
CN(C)CCNC(=O)Cn1c(=O)c2cccn2c2ccc(F)cc21	111	104
COc1ccc(-c2ccc3c(N)c(C(=O)Nc4cccc(C)c4)sc3n2)cc1	113	118
Cc1ccc2c(=O)cc(C(=O)Nc3c(C)cccc3C)oc2c1	108	108
O=C(NCc1ccc(Cl)cc1)c1ccc2c(c1)nnn2C1CCCC1	103	111

(more compounds)
SMILES	Polio RdRp inh	Polio RdRp inh intensity
Cc1nc2cc(-c3ccc(Cl)cc3)nn2c(C)c1CCC(=O)N1CCN(c2ccccc2)CC1	104	109
COc1ccccc1-c1nnc2n(CCc3ccccc3)c(=O)c3ccccc3n12	103	106
CCOc1ccc(C(=O)Nc2ccc3nc(SCC(=O)N4CCOCC4)sc3c2)cc1	104	97
CCOC(=O)c1ccc(NC(=O)c2cc3c([nH]c2=O)CC(c2ccccc2)CC3=O)cc1 (centres undefined)	106	112
CCCCCOC(=O)CSc1ncnc2c1sc1nc(N3CCOCC3)c3c(c12)CCCC3	106	112
Cc1ccc(NC(=O)N2CCc3cc(S(=O)(=O)N4CCC(C)CC4)ccc32)cc1	107	105
Cc1ccc(OCC(=O)Nc2ccc(S(=O)(=O)Nc3ncccn3)cc2)c(C(C)(C)C)c1	105	109
COc1ccccc1N1CCN(C(=O)Nc2cn(CC(C)C)c(=O)c3ccccc23)CC1	104	111
CCC(=O)N1CCc2cc(Br)cc(S(=O)(=O)N3CCCC(C(=O)Nc4cccc(C)c4C)C3)c21 (centres undefined)	104	89
COc1ccc(Nc2nc3c(S(=O)(=O)c4ccc(C)cc4)nnn3c3ccsc23)cc1Cl	100	106
COCCCNC(=O)CSC1=Nc2ccccc2C2=NC(CCC(=O)NCc3ccc(OC)cc3)C(=O)N12 (centres undefined)	110	114
COc1ccc(CC(=O)NCCc2sc(-c3cccc(F)c3)nc2C)cc1	107	108
Cc1ccc(C(=O)Nc2ccc(NC(=O)c3cccs3)cc2)cc1C	104	104
O=C(CSc1nc2c([nH]c3ccccc32)c(=O)n1-c1ccccc1)N1CCc2ccccc21	98	105
Cc1ccc(C)c(N2CCN(C(=O)CN3C(=O)COc4ccc(S(=O)(=O)N5CCCCCC5)cc43)CC2)c1	98	100
COc1ccccc1CNC(=O)c1cc2cccc3c2n1CC(C)S3 (centres undefined)	100	91
COc1cccc(C2=CC(c3ccccc3F)n3ncc(C(=O)Nc4ccc(F)cc4)c3N2)c1 (centres undefined)	81	265
Cc1ccc(N2CC(NC(=O)c3cccc(Cl)c3)CC2=O)cc1C (centres undefined)	110	112
COc1ccc(NC(=O)Cn2nnc(C(=O)NCc3ccccc3Cl)c2N)cc1Cl	102	110
COc1ccc(N(CC(=O)Nc2ccc(Cl)cc2C)S(=O)(=O)c2ccccc2)c(OC)c1	105	106
Cc1c(-c2nc(-c3ccccc3)no2)nnn1-c1cccc(C(F)(F)F)c1	105	109
O=C(NC1(C(F)(F)F)NC(=O)N(CCc2ccccc2)C1=O)c1ccccc1F (centres undefined)	108	111
O=c1c2cnn(-c3ccc(Cl)cc3)c2ncn1Cc1cccc(C(F)(F)F)c1	109	104
CCCC(=O)Nc1cc2nn(-c3ccccc3)nc2cc1C	107	112
COC(=O)c1cc2sc(C)cc2n1CC(=O)Nc1ccc(C)c(C)c1	102	109
Cc1ccc(Cl)cc1NC(=O)Cn1c(SCC(=O)NCc2ccccc2)nc2ccccc21	106	114
Cc1ccccc1CCNC(=O)c1ccc(Cn2c(=O)c3cccn3c3cccnc32)cc1	112	109
Cc1cccc(NC(=O)CCNS(=O)(=O)c2cccc3nonc23)c1	110	109
O=C(NCCc1ccccc1)c1ccc2nc(N3CCCCC3)sc2c1	108	106
CC(C)c1ccc(NS(=O)(=O)c2cc(Br)cc3c2N(C(=O)C2CC2)CC3)cc1	106	110
COc1ccc(C(=O)N(Cc2sccc2C)C2CCS(=O)(=O)C2)cc1Cl (centres undefined)	119	112
Cc1ccc2c(c1)C(=O)OC(C(=O)Nc1ncc(Cc3ccc(Cl)cc3)s1)C2 (centres undefined)	109	110
CCOc1ccc(CNC(=O)c2ccc(CS(=O)c3ccccc3)o2)cc1 (centres undefined)	98	102
COc1ccc(Cl)cc1C(=O)Nc1ccc2nc(Nc3cccc(Cl)c3)cc(C)c2c1	105	105
COc1ccc(OC(C)C(=O)NCc2nc(-c3cccc(C)c3)no2)cc1 (centres undefined)	112	112
CCOc1ccc(NC(=O)c2ccc(-c3ccccc3)s2)cc1	103	106
Cc1cccc(N2CCN(C(=O)c3cc4c(=O)oc5ccccc5c4s3)CC2C)c1 (centres undefined)	106	110
Cc1nn(CCCC(=O)NCc2ccccc2Br)c(=O)c2c1sc1ccccc12	112	107
Cc1ccc(NC(=O)CCc2c(C)nc3cc(-c4ccccc4)nn3c2C)cc1F	109	110
CCc1ccc(-n2c(=O)c3cccnc3n2CC(=O)Nc2cc(F)ccc2F)cc1	115	115
COc1ccc(CNC(=O)CCc2c(C)nc3nc(CNC(=O)OC(C)(C)C)nn3c2C)cc1	107	108
CCOC(=O)c1ccc(CN(Cc2ccccc2C)S(=O)(=O)c2ccc(F)c(C)c2)cc1	105	107
CCCCN(CC)C(=O)Cn1c(=O)n(-c2ccc(OCC)cc2)c(=O)c2c3c(sc21)CCCC3	106	113
Cc1ccc(NC(=O)C2CCCN(S(=O)(=O)c3c(C)noc3C)C2)cc1 (centres undefined)	102	101
Cc1ccn2cc(CNC(=O)c3cccc(C(F)(F)F)c3)nc2c1	111	115
COc1cc(NS(=O)(=O)c2ccc3c(c2)CCN3S(C)(=O)=O)cc(OC)c1	109	114
COc1ccc(CN2C(=O)c3oc4ccc(F)cc4c(=O)c3C2c2ccc(O)cc2)cc1 (centres undefined)	102	100
Cn1ncc2c(NCc3ccc(Cl)cc3)ncnc21	110	111
